YopH inh: YopH tyrosine phosphatase inhibitors, primary screen, biochemical, fluorescence Ex485/Em525; YopH tyrosine phosphatase [Yersinia enterocolitica]; AID 898, 2007; 0.16% of 140,000 active; inhibition, %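 (about 10 µM by stock and volumes)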;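 active = inhibition of 50% or more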;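 also: controls were vehicle for no effect and minimum signal wells for full effect; inactives centre near -20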
Mtb bLac sens: beta-lactam sensitization of Mtb H37Rv, H37Rv; M. tuberculosis H37Rv growth with meropenem, percent inhibition; hits of this screen are not shown here; inhibition, % at 25 µM; 0.27% of 330,000 active;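 active = about 74% or more and at least 40 points above the plate without the antibiotic, then above 30% in a dose series; inconclusive = first-round hits that could not be retested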;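 also: growth measured after seven days incubation then overnight dye step; 0% = bacteria only wells and 100% = bacteria with antibiotic; twin plates without the antibiotic show which effects depend on it; some results filed as inactive read as strong as hits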
Mtb H37Rv: M. tuberculosis H37Rv growth inhibitors, H37Rv strain (AID 1626) | 0.95% of 220,000 active | inhibition, % at 10 µM; hits with a dose series show IC50 in µM | M. tuberculosis H37Rv growth inhibition; higher % means a stronger effect;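 active = confirmed in a dose series; inconclusive = inhibition above 80% but not taken into the dose series; inactive = below 80% or under 30% at every dose of the series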;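 also: bacteria incubated seven days before Alamar blue readout; 0% = bacteria only wells and 100% = bacteria with antibiotic wells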
RecA splice inh: Mtb RecA intein splicing inhibitors, primary screen, biochemical, fluorescence, HTS. Protein RecA (Mycobacterium tuberculosis (strain ATCC 25618 / H37Rv)), P9WHJ3. inhibition, %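 (about 9 µM by stock and volumes)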. 0.75% of 290,000 active. AID 2221, 2009. cell-free RecA intein splicing; in the data active = inhibition above about 30%; inconclusive = no clear call, values can overlap the other calls;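 also: 0% = vehicle wells and 100% = reference inhibitor control wells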
Target sequence (P9WHJ3 whole entry, looked up, canonical isoform): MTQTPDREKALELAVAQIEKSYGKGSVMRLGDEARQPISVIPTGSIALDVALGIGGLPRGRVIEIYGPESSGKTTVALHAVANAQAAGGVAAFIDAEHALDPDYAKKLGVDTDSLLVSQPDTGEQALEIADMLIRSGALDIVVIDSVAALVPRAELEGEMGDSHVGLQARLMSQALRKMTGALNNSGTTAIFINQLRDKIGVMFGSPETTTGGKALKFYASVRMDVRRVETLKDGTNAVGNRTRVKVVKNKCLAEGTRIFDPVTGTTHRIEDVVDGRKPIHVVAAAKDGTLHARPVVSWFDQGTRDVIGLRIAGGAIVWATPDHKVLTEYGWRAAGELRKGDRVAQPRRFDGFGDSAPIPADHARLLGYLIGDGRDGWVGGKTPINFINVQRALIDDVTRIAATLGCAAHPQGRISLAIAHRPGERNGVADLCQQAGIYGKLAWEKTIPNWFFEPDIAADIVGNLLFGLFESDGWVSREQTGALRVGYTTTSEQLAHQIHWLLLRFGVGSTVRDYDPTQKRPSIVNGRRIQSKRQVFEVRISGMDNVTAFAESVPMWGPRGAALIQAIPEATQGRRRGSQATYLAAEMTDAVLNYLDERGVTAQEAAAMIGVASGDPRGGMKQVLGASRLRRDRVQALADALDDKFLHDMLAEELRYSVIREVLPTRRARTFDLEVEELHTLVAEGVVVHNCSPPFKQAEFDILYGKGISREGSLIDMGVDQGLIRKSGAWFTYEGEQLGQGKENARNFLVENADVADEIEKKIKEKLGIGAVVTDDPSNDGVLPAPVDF
Arbovirus inh: antivirals against arbovirus infection, primary screen, cell-based, full library, 10K replicate subset; 0.37% of 200,000 active; inhibition, % at 10 µM; arbovirus infection cell-based antiviral screen;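 active = inhibition from about 30%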;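 also: bluetongue infection of BSR cells; cell survival read as ATP light after 72 h; 0% = infected wells without compound and 100% = uninfected wells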
Arbovirus inh repeat: also measured in Arbovirus inh; calls as there; inhibition, %; measured here: 10K subset replicate screen; many hits read low in the repeat;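 first of two repeat runs on a subset; 0% = infected and 100% = uninfected wells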
Numbers without * were called inactive; ? = inconclusive; . = not tested or not shown. A portion of the library; the hit share may differ from the screen's.

SMILES	YopH inh	Mtb bLac sens	Mtb H37Rv	RecA splice inh	Arbovirus inh	others
COC(=O)[C@@]1(Cc2ccccc2)[C@H]2c3cc(C(=O)N4CCCC4)n(Cc4ccsc4Br)c3C[C@H]2CN1C(=O)c1ccccc1	-21	-5	4%	.	-21
CC(=O)N(C1=C(Cl)C(=O)c2ccccc2C1=O)C1CCCCC1	.	27	8%	92*	.
Nc1ccc(Nc2ccccc2)cc1	-22	0	71%	-2.0	-26
CC(=O)c1cccc(S(=O)(=O)NC2CC2)c1	-31	1	-5%	-0.4	-6
CCCn1nc(NS(=O)(=O)c2ccccc2[N+](=O)[O-])c2cc3ccccc3nc21	.	-8	.	-4.9	.
COc1ccc(N2CCN(C(=O)CCCn3c(=O)c4cccn4c4cccnc43)CC2)cc1	.	-4	.	1.4	.
CCOC(=O)C1=C(NC(=S)NC(=O)c2ccccc2)c2ccccc2CC1(C)CC (centres undefined)	-29	12	12%	7.0	27
CCN1CCN(c2cc(C)c3cc(NC(=S)N4CC(C)CC(C)C4)ccc3n2)CC1 (centres undefined)	.	.	6%	-6.1	-16
O=C1CCC(C(=O)N2CCSCC2)CN1Cc1cccc(C(F)(F)F)c1 (centres undefined)	.	-4	.	-3.0	.
CN(C)CCCN=Cc1c(O)n(Cc2ccco2)c(=O)[nH]c1=O	.	5	2%	-1.4	2
CC(C)CC(CC(C)C)=NNC(=O)c1ccc(CSc2nncn2C)cc1	.	3	-14%	2.6	8
COc1ccc(S(=O)(=O)N2CCOC23CCN(C(=O)c2c(F)cccc2Cl)CC3)cc1	.	2	.	3.0	.
CCCc1cc(C(=O)Nc2cc(Cl)ccc2O)no1	.	88	.	1.3	.
C[C@]12C=CC(=O)C=C1CCC1C3CC[C@](O)(C(=O)CO)[C@@]3(C)CC3OC312 (some centres undefined)	-21	2	-1%	-0.8	14
CC/C(=N\NC(=O)c1cccnc1)c1ccc2c(c1)OCCO2	.	-3	3%	1.5	1
Cc1ccc(S(=O)(=O)N(C)CC(=O)Nc2ccccc2)cc1	12	-12	-1%	-0.8	7
O=C(c1cccc(NS(=O)(=O)c2cccc(C(F)(F)F)c2)c1)N1CCOCC1	.	-5	.	1.0	.
C=CCc1c(C)[nH]c(=O)[nH]c1=O	.	-4	-1%	-3.1	-2
O=C(c1cnc(-c2ccc(Cl)cc2)s1)c1ccc(Cl)cc1Cl	-1	-1	-2%	-4.4	-7
C/C(=N\NC(=O)c1c(C)nc2ccccn12)c1ccco1	.	-8	-3%	-1.5	15
Cc1ccccc1C(=O)N1CCN(c2ccc(NC(=O)c3cccs3)cc2)CC1	.	-3	.	-0.2	.
Cn1c(=O)c2c(nc(CN3CCC(C(N)=O)CC3)n2CCCc2ccccc2)n(C)c1=O	-2	2	-2%	-2.8	-3
CC(C)[C@H](NC(=O)c1nn(Cc2ccccc2)c(=O)c2ccccc12)C(=O)O	.	-9	.	-1.5	.
CCn1cc(C(=O)N2CCOCC2)c2ccccc21	.	-4	4%	-0.5	11
CC1Cc2ccccc2N1C(=O)CN1CCC(C(N)=O)CC1 (centres undefined)	.	-3	1%	1.1	7
Following part
SMILES	YopH inh	Mtb bLac sens	Mtb H37Rv	RecA splice inh	Arbovirus inh	others
Cc1c(C)c2ccc(OCC(=O)NC(Cc3c[nH]c4ccc(O)cc34)C(=O)O)c(C)c2oc1=O (centres undefined)	.	-4	.	12	.
Cc1ccc(C(=O)/C=C/C(=O)c2ccc(C)cc2)cc1	.	100	5.5µM*	6.1	-31
O=C1NN(c2ccccc2)C(=O)/C1=C\c1ccccc1	.	5	.	-0.5	.
Brc1ccc(NCc2nnc3n2CCCCC3)cc1	-27	5	2%	.	0
c1cnc(Sc2ccc3nnnn3n2)nc1	.	5	-2%	2.5	4
CSc1nsc(SCC(=O)Nc2ccc(OC(C)=O)cc2)n1	.	100	2.6µM*	-0.4	5
COc1cccc(NC(=O)N2CCCC2C(=O)NCC(C)C)c1 (centres undefined)	-54	-5	1%	2.3	-3
Cc1cc(N2CCN(c3ccccc3)CC2)nc(-c2ccccc2)n1	-22	-5	-10%	9.5	-19
CCSc1nnc(NC(=O)CSc2nc3c(cc2C#N)CCCC3)s1	-25	0	1%	-4.8	-1
CC(C)CCNC(=O)C(c1ccco1)N(CC1CCCO1)C(=O)Cn1nnc2ccccc21 (centres undefined)	1	-8	-5%	0.9	0
COc1ccc(C(=O)Nc2nc(CC(=O)NCCc3ccccc3)cs2)cc1	.	20	.	-2.2	.
Cc1ccc(C(OC(=O)c2ccco2)C(=O)NC2CCCC2)cc1 (centres undefined)	.	-3	.	-0.1	.
Brc1ccc(-c2ccc(/C=N/Nc3nc4ccccc4[nH]3)o2)cc1	-20	99	?	-0.6	4
COCCNC(=O)Cn1cnc([N+](=O)[O-])n1	.	-4	-1%	-1.5	6
COc1ccc(-c2nonc2NC(=O)c2oc3ccccc3c2C)cc1OC	.	5	.	-0.7	.
CCOC(=O)/C=C1\SCC(=O)N1Cc1nnc(-c2ccccc2Br)o1	10	-12	-7%	1.3	0
Cn1c(=O)c2c(ncn2CC(=O)N2CCN(c3ccc(F)cc3)CC2)n(C)c1=O	-7	1	-2%	-1.3	7
CCOc1ccc(N2C(=O)CC(N(CCc3ccccc3)C(=O)/C=C/C(=O)O)C2=O)cc1 (centres undefined)	.	-11	-5%	0.7	10
Cc1ccc2cc(CN(CC3CCCO3)C(=O)C(C)C)c(=O)[nH]c2c1 (centres undefined)	-28	-8	-4%	-0.2	3
Cc1ccc(CN2CCCN(Cc3ccccc3C)S2(=O)=O)cc1	.	0	.	15	.
COc1c(C(=O)Nc2nccs2)ccc2ccccc12	.	46	.	5.8	.
CCOC(=O)C1CCN(C(=O)C2(NC(=O)Nc3cccc(F)c3)CCCCC2)CC1	.	-3	-1%	-0.9	8
CC(C)(C)c1cc[n+](C2=C([O-])c3ccccc3C(=O)/C2=N\S(=O)(=O)c2cccs2)cc1	.	-3	4%	78*	.
CCN(CC)CCn1c(NC(=O)c2ccc(C(F)(F)F)cc2)nc2ccccc21	.	33	89%	6.7	-4
NS(=O)(=O)Cc1noc2ccccc12	.	-1	.	-1.5	.
Remaining list, next part.
SMILES	YopH inh	Mtb bLac sens	Mtb H37Rv	RecA splice inh	Arbovirus inh	others
CC1(C)CC(=O)C=C(C(=O)NC2CCCc3c2cnn3-c2cc(F)cc(F)c2)O1 (centres undefined)	.	-9	.	0.0	.
CCOc1cc(/C=N/NS(=O)(=O)c2ccc(OC)cc2)ccc1OCCN1CCOCC1	-33	0	6%	-4.3	5
CCCCCCSc1ccc([C@H]2N[C@@](Cc3ccccc3)(C(=O)OC)[C@H]3C(=O)N(C)C(=O)[C@@H]23)cc1	.	-8	.	1.1	.
Nn1c(SCC(=O)N2CCN(S(=O)(=O)c3ccc(Cl)cc3)CC2)nnc1-c1cccs1	-22	-20	1%	-5.2	5
CC(C)(C)SCCNC(=O)CSc1ccccc1	-20	-4	10%	1.0	6	Arbovirus inh repeat=0
Nc1c(C(=O)NCc2ccco2)c2nc3ccccc3nc2n1Cc1ccccc1	1	32	11%	-146	-9
CC(=NCc1cccnc1)c1c(O)n(-c2ccccc2)c(=O)[nH]c1=O	-8	-11	-6%	-0.7	-6
COc1ccc(S(=O)(=O)Cc2ccc(C(=O)N3CCN(c4ccccc4)CC3)o2)cc1	-13	4	-11%	.	0	Arbovirus inh repeat=1
CCOC(=O)c1cccc(NC(=O)C2CCCN(S(=O)(=O)c3c(C)nn(C)c3C)C2)c1 (centres undefined)	-2	-11	-6%	.	0
COc1ccc(C/C(N)=N/OC(=O)Cc2ccc(OC)c(OC)c2)cc1	-22	-5	-4%	1.5	10
COCc1ccc(C(=O)NC2CCCc3c2cnn3-c2ccc(C)c(C)c2)o1 (centres undefined)	.	?	.	5.9	.
CCCCCn1cnc2c(sc3nc4c(cc32)CSC(C)(C)C4)c1=O	-20	54	16%	2.4	5
Cc1nnc(Nc2ccccc2F)s1	.	-17	-6%	-1.2	.
Cc1nnc(SCC(=O)Nc2cc(-c3cc(C)c(C)cc3C)nn2-c2ccccc2)s1	-1	8	10%	6.2	7
Cc1ccc(C)c(-c2nnc(NC(=O)Cc3ccc(F)cc3)o2)c1	.	?	.	5.9	.
CN1C(=O)c2ccc(NC(=O)c3c(F)c(F)c(F)c(F)c3F)cc2C1=O	-24	0	-17%	-0.2	7
CCOCCn1c(SCCCc2ccccc2)nc2c1c(=O)[nH]c(=O)n2C	4	-2	-4%	-0.1	-7
O=C(NC1CCCCCC1)c1ccco1	.	0	.	-2.5	.
COC(=O)c1sccc1NC(=O)Cc1ccc(OC)cc1	-11	-2	11%	1.6	-2
COc1ccccc1CN1CCCC(C(=O)N(C)Cc2ccccc2)C1 (centres undefined)	-25	.	-2%	0.1	6
C/C(=N\N=C\c1ccccc1F)c1nnn(-c2nonc2N)c1C	-29	5	-4%	-2.7	-5
O=C(COC(=O)C1CCN(C(=O)Nc2ccccc2)CC1)NCC(F)(F)F	.	-1	-11%	-0.7	7
CC1(C)CC(C2N3CC4(C)CN2CC(C)(C3)C4=O)CCO1 (centres undefined)	-43	-4	-9%	1.4	13
O=C(Nc1nc2ccccc2[nH]1)c1cc2ccccc2o1	.	94	37µM*	-1.8	-7
O=C(O)Cc1ccc(N=Cc2c(O)ccc3ccccc23)cc1	-17	75	73%	-6.1	-5

Entries listed so far that contain a tert-butyl group (2):
SMILES	YopH inh	Mtb bLac sens	Mtb H37Rv	RecA splice inh	Arbovirus inh	others
CC(C)(C)c1cc[n+](C2=C([O-])c3ccccc3C(=O)/C2=N\S(=O)(=O)c2cccs2)cc1	.	-3	4%	78*	.
CC(C)(C)SCCNC(=O)CSc1ccccc1	-20	-4	10%	1.0	6	Arbovirus inh repeat=0

Ordered by count of non-hydrogen atoms (low to high): some entries from above
SMILES	YopH inh	Mtb bLac sens	Mtb H37Rv	RecA splice inh	Arbovirus inh	others
O=C(COC(=O)C1CCN(C(=O)Nc2ccccc2)CC1)NCC(F)(F)F	.	-1	-11%	-0.7	7
Nc1c(C(=O)NCc2ccco2)c2nc3ccccc3nc2n1Cc1ccccc1	1	32	11%	-146	-9
CCOc1ccc(N2C(=O)CC(N(CCc3ccccc3)C(=O)/C=C/C(=O)O)C2=O)cc1 (centres undefined)	.	-11	-5%	0.7	10

Among those listed so far, these contain bromine:
SMILES	YopH inh	Mtb bLac sens	Mtb H37Rv	RecA splice inh	Arbovirus inh	others
COC(=O)[C@@]1(Cc2ccccc2)[C@H]2c3cc(C(=O)N4CCCC4)n(Cc4ccsc4Br)c3C[C@H]2CN1C(=O)c1ccccc1	-21	-5	4%	.	-21
Brc1ccc(NCc2nnc3n2CCCCC3)cc1	-27	5	2%	.	0
Brc1ccc(-c2ccc(/C=N/Nc3nc4ccccc4[nH]3)o2)cc1	-20	99	?	-0.6	4
CCOC(=O)/C=C1\SCC(=O)N1Cc1nnc(-c2ccccc2Br)o1	10	-12	-7%	1.3	0

(cont.)
SMILES	YopH inh	Mtb bLac sens	Mtb H37Rv	RecA splice inh	Arbovirus inh	others
CSc1ccccc1C(=O)Nc1cc(C)cc(C)c1	-30	-1	-7%	-1.1	2
CN(C(=O)CSc1nnc(Cc2cccc3ccccc23)n1N)C1CCS(=O)(=O)C1 (centres undefined)	-11	-12	-2%	.	3
COC(=O)C1=C(C)Nc2nnnn2C1c1ccc(Cl)cc1Cl (centres undefined)	-23	-20	-2%	.	11	Arbovirus inh repeat=9
COc1ccc(CNc2nc(-c3ccccc3)nc3ccccc23)cc1OC	.	2	.	4.8	.
COc1cccc(CNC(=O)C2CCN(S(=O)(=O)c3ccc(F)cc3)CC2)c1	23	.	-5%	-4.3	-1
Cc1ccccc1NC(=O)C1C2CC/C=C\CCC21 (centres undefined)	-31	-9	2%	1.6	4
CCCCN(C(=O)Cc1cccs1)c1nnc(-c2cccnc2)s1	30	3	10%	.	2
Nc1nonc1-c1nc2ccccc2n1CC(=O)N1CCN(c2ccc(F)cc2)CC1	-9	4	5%	0.9	-4
O=C(Cn1cnc2ccccc21)N/N=C/c1ccco1	-11	3	3%	0.8	1
COc1ccc(/C(N)=N/OC(=O)Cc2ccc(OC)c(OC)c2)cc1	-23	4	15%	2.8	8

2 consecutive compounds from above:
SMILES	YopH inh	Mtb bLac sens	Mtb H37Rv	RecA splice inh	Arbovirus inh	others
O=C(Cn1cnc2ccccc21)N/N=C/c1ccco1	-11	3	3%	0.8	1
COc1ccc(/C(N)=N/OC(=O)Cc2ccc(OC)c(OC)c2)cc1	-23	4	15%	2.8	8

Screens: PubChem BioAssay, several laboratories
